Screens (PubChem BioAssay)
eIF4H FP inh: human eIF4H binding inhibitors, primary screen, translation initiation inhibitor project, biochemical, uHTS, fluorescence polarization. 0.94% of 290,000 active. eIF4H fluorescence polarization binding assay. Eukaryotic translation initiation factor 4H (Homo sapiens), Q15056. inhibition, % at 35 µM;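 active = 50% or more with normal probe brightness, or confirmed in later tests; about a fifth of its hits are not listed in these tables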;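 note: calls also rest on retests at 20 µM and on dose response follow-up; 0% = protein and probe with vehicle and 100% = probe without protein; strong numbers were not always called active; many hits fall short of the cut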
CSC inhib: cancer stem cell viability inhibitors, primary screen, luminescence; AID 2717, 2010; cancer stem cell-like cells viability; 1.1% of 300,000 active; inhibition, % at 7.5 µM;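 active = mean at 75% or more and at least half the replicates too; tested in HMLE shEcad cells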;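 note: 0% = median of negative and 100% = median of positive control wells; the first replicate is given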
UUG fidelity: modulators of yeast start codon fidelity, primary screen, whole organism, S. cerevisiae, single point, plate reader; S. cerevisiae UUG-firefly luciferase reporter, luminescence/redox ratio; activity score, % at 18.7 µM; 0.13% of 350,000 active; AID 602363, 2012;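 active = replicate mean at a twofold rise or more, about +100% in these data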;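 note: firefly luciferase made from a UUG start codon reports start codon fidelity; reporter light over untreated wells divided by growth signal over untreated wells; some hits fall short of that in this replicate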
MT1-MMP act inh: blockers of MT1-MMP proenzyme processing, primary screen, HT1080 RFP-PRO-GFP cells, GFP/RFP fluorescence; Matrix metalloproteinase-14 (Homo sapiens), P50281; GFP/RFP ratio fluorescence, overnight; percent of plate control window, DMSO zero; GFP/RFP ratio change, % at 20 µM; 0.061% of 360,000 active; AID 651647, 2012;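 active = GFP/RFP ratio change of at least 30% with cell ATP level not reduced by more than half and red fluorescence within 50% of control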; note: strong numbers were not always called active
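Assay system: HT1080 RFP-PRO-GFP cells. Benchmarks: DMSO vehicle wells and RFP-L50D-GFP reporter cell wells. Times: overnight cell settling, then overnight compound exposure, 37 °C, 5% CO2. Compound: 20 µM single dose, 1% DMSO. Read-out basis: GFP/RFP fluorescence ratio.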
HIV Env fusion: inhibitors of HIV-1 Env-driven cell-cell fusion, primary screen, HeLa-JRFL effector, CEM21 target cells, luciferase. inhibition, % at 12.3 µM. 1.1% of 360,000 active;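 active = mean replicate inhibition score of at least 50 and every replicate individually at or above 50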;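 note: 0% = plate neutral controls and 100% = maraviroc near 300 nM; one replicate is shown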
PABP FP inh: PABP poly(A) RNA binding inhibitors, primary screen, biochemical, fluorescence polarization, uHTS; 1% of 290,000 active; inhibition, % at 35 µM; Polyadenylate-binding protein 1 (Homo sapiens), P11940; AID 2014, 2009;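 active = 50% or more with normal probe brightness, or confirmed in later tests; about a fifth of its hits are not listed in these tables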;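 note: calls also rest on retests at 20 µM and on dose response follow-up; controls were probe without protein and protein plus probe with vehicle; some compounds called inactive have numbers as strong as hits; many hits fall short of the cut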
Target sequence (P11940 whole entry, looked up): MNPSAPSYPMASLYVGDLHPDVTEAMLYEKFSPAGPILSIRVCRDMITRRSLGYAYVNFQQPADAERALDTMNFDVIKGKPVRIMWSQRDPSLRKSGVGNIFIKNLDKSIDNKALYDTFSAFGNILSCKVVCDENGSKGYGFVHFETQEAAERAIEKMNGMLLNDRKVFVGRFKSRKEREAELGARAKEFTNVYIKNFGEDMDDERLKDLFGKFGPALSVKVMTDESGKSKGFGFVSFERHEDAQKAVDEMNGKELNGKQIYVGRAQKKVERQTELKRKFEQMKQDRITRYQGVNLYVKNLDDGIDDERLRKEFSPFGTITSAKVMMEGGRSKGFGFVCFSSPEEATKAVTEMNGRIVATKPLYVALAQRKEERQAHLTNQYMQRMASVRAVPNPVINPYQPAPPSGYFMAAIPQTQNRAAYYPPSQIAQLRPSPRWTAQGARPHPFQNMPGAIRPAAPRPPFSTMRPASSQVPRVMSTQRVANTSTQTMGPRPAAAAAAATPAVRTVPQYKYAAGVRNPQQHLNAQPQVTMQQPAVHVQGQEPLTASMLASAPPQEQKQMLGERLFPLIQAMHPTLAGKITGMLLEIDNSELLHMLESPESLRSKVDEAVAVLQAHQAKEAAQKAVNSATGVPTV
Rce1 inh: yeast Rce1p protease inhibitors, primary screen, biochemical, fluorescence, cell-free homogeneous. yeast membranes, quenched prenylated peptide cleavage fluorescence. calls only. 0.27% of 290,000 active;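 active = fall in fluorescence gain of 50% or more versus controls, with final raw signal at or below 3038400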;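 note: plate controls were neutral control wells for no effect and wells lacking membranes for full effect; tested at 10 µM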
eIF4H FP inh retest: recorded beside eIF4H FP inh, whose call it bears; inhibition, %; compound at 20 µM; confirmation average;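 mean of two retest wells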
PABP FP inh retest: recorded beside PABP FP inh, whose call it bears; inhibition, %; compound at 20 µM; confirmation repeats;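 mean of two retest wells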
MT1-MMP act inh RFP: second read-out of MT1-MMP act inh, no call of its own (marks repeat the call); RFP signal change, %; measured here: RFP expression control read;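 0 = vehicle wells; hits needed this value within 50% of zero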
An asterisk follows results filed as active; i = inactive; . = not tested or not shown.

SMILES	eIF4H FP inh	CSC inhib	UUG fidelity	MT1-MMP act inh	MT1-MMP act inh RFP	HIV Env fusion	PABP FP inh	Rce1 inh	others
O=S(=O)(c1cccc(-c2cn3cc(Cl)ccc3n2)c1)N1CCOCC1	-2	-11	-11	-1	-5	-61	3	i
Cc1ccccc1NC(=S)N1CCCC1	-2	-17	.	-1	0	7	2	i
CCN1CCN(Cc2ccc(NC(=O)Nc3ccccc3OC)cc2)CC1	-5	-14	-9	2	2	-24	-10	i
O=C(CNc1ccc2ccccc2c1)N/N=C/c1cc2ccccc2nc1Cl	12	6	-7	-13	3	-12	4	i
COc1ccc(/C(C)=N/N=C2/NC(=O)CC(C(=O)O)S2)cc1F (stereo unspecified)	6	-9	.	-1	0	-7	-1	i
C/C(CC(=O)Nc1ccc(Cl)c(C(F)(F)F)c1)=N\NC(=O)c1cc2ccccc2cc1O	38	76*	-19	-8	-22	5	64	i	eIF4H FP inh retest=-6;PABP FP inh retest=5
COc1ccc(F)cc1-c1cc(C(=O)Nc2cccnc2)[nH]n1	.	.	-7	4	2	-71	.	.
CCOC(=O)C1=C(COC(=O)c2cccc(Br)c2)NC(=O)NC1C (stereo unspecified)	.	26	-5	1	3	-10	.	i
Cc1cccc(N2CCN(C(=O)COc3ccc4c(c3)CCC4)CC2C)c1 (stereo unspecified)	.	.	-9	1	-2	0	.	.
O=c1cc(CN2CCOCC2)c2ccccc2o1	.	.	-10	-1	3	8	.	.
Cc1nc2scc(-c3cccs3)c2c(=O)n1CC(=O)O	-2	-7	-8	1	2	.	17	i
N#Cc1c(-c2ccccc2)oc(=O)c2ccccc12	-6	4	-6	-2	7	3	7	i
COc1ccccc1C(=O)N/C(=C/c1ccc2c(c1)OCO2)C(=O)Nc1ccc(C(=O)O)cc1	-10	-9	0	4	3	3	2	i
CC(=O)Nc1c(OC(C)=O)ccc2c(C)cc(=O)oc12	-6	-14	-14	-1	-4	.	3	i
Cc1cc(NC(=S)Nc2cccnc2)ccc1Br	-6	2	-17	4	2	7	-1	i
COc1ccc(OC)c(S(=O)(=O)Nc2ccc3c(c2)n(C)c(=O)n3C)c1	2	-2	-15	7	4	-6	6	i
c1ccc(N=Nc2cn[nH]c2-c2ccco2)cc1	-6	.	2	-1	-3	4	3	i
COc1ccc(C(C2C(=O)CC(C)(C)CC2=O)C2C(=O)CC(C)(C)CC2=O)cc1CO	-3	-6	-4	3	3	11	-1	i
COc1ccc(Cl)cc1NC(=S)NCc1ccco1	15	-5	-21	1	4	-92	-10	i
O=C(N[C@@H](Cc1ccccc1)C(=O)OCC(=O)N1CCOCC1)c1cccs1	-1	5	-10	2	5	4	0	i
CC(C)(C)CC(=O)NC(=S)NCCc1ccccc1	7	-8	-6	-10	-3	.	3	i
CCOc1ccc(NC(=O)CSc2nnc(CCNC(=O)c3ccc(OC)cc3)n2C)cc1	-8	-2	-20	5	0	.	-13	i
Cc1ccc(N2C(=O)C(CN3CCCCC3)C2c2ccccc2)cc1 (stereo unspecified)	-2	16	.	1	2	-2	-15	i
COc1ccc(CN2C(=O)C(CC(=O)NC3CCCCC3)CC(C(=O)N(C)C)=C2C)cc1 (stereo unspecified)	.	.	-3	5	7	15	.	.

Sorted by length of the SMILES (falling): some entries from above
SMILES	eIF4H FP inh	CSC inhib	UUG fidelity	MT1-MMP act inh	MT1-MMP act inh RFP	HIV Env fusion	PABP FP inh	Rce1 inh	others
COc1ccccc1C(=O)N/C(=C/c1ccc2c(c1)OCO2)C(=O)Nc1ccc(C(=O)O)cc1	-10	-9	0	4	3	3	2	i
Cc1ccc(N2C(=O)C(CN3CCCCC3)C2c2ccccc2)cc1 (stereo unspecified)	-2	16	.	1	2	-2	-15	i
COc1ccc(Cl)cc1NC(=S)NCc1ccco1	15	-5	-21	1	4	-92	-10	i

The results go on:
SMILES	eIF4H FP inh	CSC inhib	UUG fidelity	MT1-MMP act inh	MT1-MMP act inh RFP	HIV Env fusion	PABP FP inh	Rce1 inh	others
Cc1c(C=O)c2ccccn2c1C(=O)c1ccncc1	11	-14	-13	-2	0	-58	2	i
COc1ccc(CN2CCCCC2C)cc1OC (stereo unspecified)	0	3	-12	6	3	.	-7	i
O=C(NCc1ccco1)c1ccccc1Nc1ccc(F)cc1	-1	30	0	0	4	27	2	i
O=C(c1ccc(CS(=O)Cc2cccc(Cl)c2)o1)N1CCN(c2ccc(F)cc2)CC1 (stereo unspecified)	.	.	0	-1	-4	16	.	.
Cc1ccc(C(=O)O)cc1NC(=S)NC(=O)c1ccc(COc2ccccc2)cc1	14	5	-28	-3	4	-16	1	i
COc1ccc(OCC(=O)N2c3ccccc3CCc3ccccc32)cc1	-13	-10	-6	1	3	-16	-8	i
Cc1ccc(S(=O)(=O)N(C)C)cc1NC(=S)Nc1ccc2cn[nH]c2c1	8	-8	.	-1	-4	12	-1	i
CN(C)c1ccc(/C=c2\sc3n(c2=O)CCCN=3)cc1	71	-4	.	-18	-5	.	4	i	eIF4H FP inh retest=24;PABP FP inh retest=4
COc1cc(NC(=O)c2ccc(-c3cccc([N+](=O)[O-])c3)o2)ccc1NC(=O)C(C)C	-9	9	-12	-1	-3	-42	-1	i
CCOc1ccccc1-c1nc(-c2ccc(NC(=O)Cc3ccc(OC)cc3)cc2)no1	2	16	-3	4	1	.	-14	i
O=C(Nc1cccn2ncnc12)C(Cl)Cl	0	7	-7	1	2	-8	-10	i
COCCNC(=O)Nc1ccc(F)cc1	9	-16	-11	4	3	0	15	i
COC(=O)c1ccccc1Oc1ccc(NC(=O)c2ccco2)cc1	-2	-13	-10	-1	-4	23	-7	i
CNc1nc(Oc2ccc3sc(C)nc3c2)c2sccc2n1	.	.	-13	0	-23	7	.	.
O=C(Nc1ccc(S(=O)(=O)N2CCCC2)cc1)c1ccc2c(=O)n3c(nc2c1)CCCCC3	-6	-7	.	-16	-21	44	-1	i
CCOc1cc(CNCc2ccc(C(=O)O)cc2)ccc1OC	-7	1	.	2	4	4	0	i
NCCCC[C@H]1CNC(=S)N1CCc1cccc(F)c1	-12	4	-29	-1	1	0	11	i
Nc1nnc(SCC(=O)NC2CCCCCCC2)s1	.	-7	-21	2	-2	9	.	i
COc1ccc(CNC(=O)C(=O)NCC2OCCN2S(=O)(=O)c2ccc(C)cc2)cc1 (stereo unspecified)	-1	-7	-9	-3	-9	9	-4	i
O=C(NCc1ccc(F)cc1)c1cc(S(=O)(=O)N2CCOCC2)ccc1F	2	2	7	3	6	-5	-2	i
CC(C)CCNC(=O)CN(Cc1ccco1)C(=O)CCC(=O)Nc1nccs1	-8	-9	-14	-2	0	1	-5	.
O=C(COc1ccc(Br)cc1Cl)NC1CCN(Cc2ccccc2)CC1	-3	4	3	-1	-3	14	-14	i
O=C(NCc1ccncc1)C1Cc2c(-c3ccc4c(c3)OCO4)ccnc2O1 (stereo unspecified)	.	.	-5	3	2	12	.	.
CN1C(=O)c2cccc3c(Br)ccc(c23)C1=O	.	2	11	-12	-5	-135	.	i
CC(C)(C)NC(=O)CN(Cc1cccs1)C(=O)C1COc2ccccc2O1 (stereo unspecified)	14	-2	-7	0	2	38	1	i
CN(C)Cc1c(C#N)c2ccccc2n1C	5	8	-6	4	4	.	2	i
Cn1c(=O)c2c(nc(CN3CCN(C(=O)c4ccco4)CC3)n2Cc2cccc(Cl)c2)n(C)c1=O	-3	-13	-6	-1	0	-163	0	i
Cc1ccc2[nH]c(=O)c(CN(CCN3CCOCC3)C(=O)Nc3ccccc3F)cc2c1	-1	.	-12	5	3	.	21	i
Oc1ccc(NC(=S)Nc2ccc(F)cc2)cc1	-7	-12	-21	5	-1	7	-9	i
C=CCNc1nc(Nc2ccc([N+](=O)[O-])cc2)nc(OC)n1	-2	-6	-1	-2	0	-86	-14	i
O=C(Nc1ccnn1C1CCN(C2CCOCC2)CC1)c1cccc(F)c1	-3	4	-9	-4	0	-2	8	i
CS(=O)(=O)N1CCC(C(=O)NCCC2=CCCCC2)CC1	-6	-12	-10	3	1	-14	-4	i
O=C(c1ccccc1Cl)N1CCN(S(=O)(=O)c2cccs2)CC1	-6	0	-13	-1	-1	9	-2	i
CC(/C=N/NC(=O)c1nnn(-c2nonc2N)c1C)=C\c1ccccc1	-2	4	-13	6	8	-13	12	i
Cc1cc(C(=O)CN2c3cccc4cccc(c34)S2(=O)=O)c(C)n1C	.	.	-9	-3	-8	11	.	.
COc1cc(C(=O)Nc2nnc(C(C)(C)C)s2)c([N+](=O)[O-])cc1OC	4	12	11	-2	1	4	2	i
CCCc1cc(-c2n[nH]c(C)c2-c2ccc(C(=O)OCC)o2)c(O)cc1O	-7	61	.	7	-2	-20	7	i
COc1ccc(N2CC(C(=O)Nc3cccc(S(=O)(=O)N4CCCC4)c3)CC2=O)c(OC)c1 (stereo unspecified)	.	6	4	3	-2	-12	.	i
Cc1noc(NS(=O)(=O)c2ccc(N/C=C\C(=O)c3ccc4c(c3)OCO4)cc2)c1C	1	.	-12	-9	-2	1	20	i
CCOC(=O)Cc1csc(NC(=O)Cc2cccs2)n1	3	0	-16	0	-1	-16	10	i
CCCSc1ncnc2sc(C)c(C)c12	-9	-7	.	-2	0	-9	3	i
CCOc1ccc(-c2noc(CCC(N)=O)n2)cc1OCC	-8	-6	-7	2	0	1	-11	.
Cc1occc1-c1nnc(SC(C)C(=O)Nc2ccccc2F)o1 (stereo unspecified)	.	.	-12	2	1	-118	.	.
CCCC(=O)Nc1cc(-c2nnc(OC)c3ccccc23)ccc1N1CCOCC1	.	-7	.	-3	-2	.	.	i
CCN(CC)S(=O)(=O)c1cccc(C(=O)OCC(=O)Nc2ccc3c(c2)c2ccccc2n3CC)c1	18	-6	.	-10	-2	-11	-8	i
Cc1ccc(S(=O)(=O)NCC(=O)NC2CCCC2)cc1	-6	.	-10	2	0	.	-1	i
Cc1ccc(CN2CCNC(=O)C2CC(=O)N(Cc2c(C)nn(C)c2C)C2CC2)o1 (stereo unspecified)	4	-7	.	0	2	0	7	i
CC(NC(=O)c1cccnc1Sc1ccccc1)c1ccc(S(N)(=O)=O)cc1 (stereo unspecified)	-14	-11	17	2	3	-16	10	i

The list goes on; it opens with the two that closed the last part.
SMILES	eIF4H FP inh	CSC inhib	UUG fidelity	MT1-MMP act inh	MT1-MMP act inh RFP	HIV Env fusion	PABP FP inh	Rce1 inh	others
Cc1ccc(CN2CCNC(=O)C2CC(=O)N(Cc2c(C)nn(C)c2C)C2CC2)o1 (stereo unspecified)	4	-7	.	0	2	0	7	i
CC(NC(=O)c1cccnc1Sc1ccccc1)c1ccc(S(N)(=O)=O)cc1 (stereo unspecified)	-14	-11	17	2	3	-16	10	i
NS(=O)(=O)c1ccc(CCNC(=O)COC(=O)/C=C/c2ccccc2Cl)cc1	-1	6	.	1	1	-7	-11	i
CC1(C)COC(c2cccc(C3=NC(C)(C)CO3)n2)=N1	18	.	.	2	3	2	-2	i
CC1CCCC(C)N1CCCNC(=O)c1csc2c1CCCCC2 (stereo unspecified)	-9	4	-32	1	2	-7	7	i
Cc1onc(-c2ccccc2Cl)c1NC(=O)NCc1cccs1	-6	-22	-22	-4	0	8	9	i
Cc1ccc(NC(=O)Nc2ncnc3nc[nH]c23)cc1	-12	6	-27	0	4	-35	15	i
COC(=O)C1=C(C)N(CC2CC2)C(=NCc2cccc(Cl)c2)N[C@H]1c1ccccc1	11	-20	10	-11	0	-127	30	i
